RanGTP-Imp inh = inhibitors of RanGTP-importin-beta interaction, primary screen, biochemical, FRET, CFP-Ran, YFP-importin-beta, homogeneous; cell-free CFP-Ran/YFP-importin-beta FRET ratio; inhibition, % (no concentration beside the values); actives 1.1% (n = 300,000); AID 2216;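 active = most replicates above 15%; inconclusive = exactly half above 15%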;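 also: 0% = DMSO wells and 100% = Ran loaded with GDP instead of GTP; wells of about 40 µL received 100 nL stock; the first replicate is given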
Beta apoptosis = blocks beta cell apoptosis; INS-1E cytokine-induced death, ATP luminescence, 48 h; percent of positive-control rescue, neutral wells zero; protection from apoptosis, % (test concentration not listed); actives 0.8% (n = 300,000);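 active = all replicates at 75% or more, or half of them and the mean; inconclusive = half reach 75% but not the mean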;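 also: 0% = cytokine-treated negative control wells and 100% = positive control rescue; higher means more ATP so stronger rescue from cytokine killing; wells of about 40 µL received 100 nL stock; the first replicate is given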
FGF22 binding = shifts melting point of recombinant human FGF22; actives 1.5% (n = 340,000); calls only at 9.99 µM; recombinant FGF22 thermal shift, SYPRO orange fluorescence; percent of sucrose octasulfate shift, DMSO zero; Q9HCT0;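 active = melting point raised past a set limit in the mean and every replicate; inconclusive = no clear call; three in four hits are not shown here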
Target sequence (Q9HCT0 whole entry, looked up): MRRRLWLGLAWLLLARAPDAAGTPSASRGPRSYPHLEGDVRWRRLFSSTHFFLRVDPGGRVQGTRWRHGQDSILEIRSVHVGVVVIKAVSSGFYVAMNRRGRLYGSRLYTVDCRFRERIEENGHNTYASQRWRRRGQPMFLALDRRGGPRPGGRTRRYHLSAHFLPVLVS
ALR H2O2 inh = inhibitors of human sulfhydryl oxidase ALR; P55789; purified ALR, DTT oxidation, H2O2 HRP-luminol luminescence; inhibition, % (no concentration beside the values); actives 3.8% (n = 290,000);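 active = mean and each replicate at 75% or more; inconclusive = only one of the two met; inactive = neither met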;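 also: stock transfer was 7.5 nL into about 7.5 µL; 0% = neutral wells and 100% = wells with inactivated enzyme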
Target sequence (P55789 whole entry, looked up): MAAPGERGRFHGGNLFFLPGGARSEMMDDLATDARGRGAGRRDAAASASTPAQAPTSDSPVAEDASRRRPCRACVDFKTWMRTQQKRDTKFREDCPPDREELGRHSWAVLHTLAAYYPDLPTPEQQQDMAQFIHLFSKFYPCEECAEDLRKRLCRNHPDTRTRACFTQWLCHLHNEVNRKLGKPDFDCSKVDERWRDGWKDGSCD
T cruzi repl = T. cruzi replication inhibition | T. cruzi beta-gal in NIH3T3, luminescence, 90 h | inhibition, % (concentration not given with the values) | actives 1.4% (n = 300,000) | AID 1885;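 active = mean inhibition across valid replicates above about 55%, limit read from the data; inconclusive = mean below that limit but half or more replicates reach it; inactive = mean below it, under half of replicates reach it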;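 also: signal also drops with host cell toxicity which is not excluded here; 0% = plate median of DMSO wells and 100% = zero luminescence signal; higher percent means less beta-gal luminescence so fewer parasites; stock transfer was 50 nL into about 50 µL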
Calb FLC = affects C. albicans growth with fluconazole. C. albicans CaCi-2 (fluconazole-resistant clinical isolate) + fluconazole, Alamar Blue growth, 48 h. growth inhibition, % (no concentration beside the values). actives 0.57% (n = 300,000). AID 1979;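 active = most replicates above 75%; inconclusive = exactly half above 75%; inactive = most below 75%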;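 also: all wells also contain fluconazole at 8 µg/ml as a sub-toxic cotreatment; 0% = median of DMSO wells and 100% = median of geldanamycin control wells; wells of about 8 µL received 7.5 nL stock; the first replicate is given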
AF4-AF9 inh = blocks AF4 peptide binding to human AF9; P42568; AlphaScreen, biotin-AF4 peptide binding to FLAG-AF9; inhibition, % at 10 µM; actives 0.47% (n = 350,000);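 active = every replicate reaching a set inhibition limit, whatever the replicate mean, cut at about 25% in these data; inconclusive = mean inhibition reaches that limit but some replicates miss it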;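 also: 0% = plate neutral control median and 100% = total signal loss; the record names both 10 and 1 µM as test concentration; the first replicate is given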
Target sequence (P42568 whole entry, looked up): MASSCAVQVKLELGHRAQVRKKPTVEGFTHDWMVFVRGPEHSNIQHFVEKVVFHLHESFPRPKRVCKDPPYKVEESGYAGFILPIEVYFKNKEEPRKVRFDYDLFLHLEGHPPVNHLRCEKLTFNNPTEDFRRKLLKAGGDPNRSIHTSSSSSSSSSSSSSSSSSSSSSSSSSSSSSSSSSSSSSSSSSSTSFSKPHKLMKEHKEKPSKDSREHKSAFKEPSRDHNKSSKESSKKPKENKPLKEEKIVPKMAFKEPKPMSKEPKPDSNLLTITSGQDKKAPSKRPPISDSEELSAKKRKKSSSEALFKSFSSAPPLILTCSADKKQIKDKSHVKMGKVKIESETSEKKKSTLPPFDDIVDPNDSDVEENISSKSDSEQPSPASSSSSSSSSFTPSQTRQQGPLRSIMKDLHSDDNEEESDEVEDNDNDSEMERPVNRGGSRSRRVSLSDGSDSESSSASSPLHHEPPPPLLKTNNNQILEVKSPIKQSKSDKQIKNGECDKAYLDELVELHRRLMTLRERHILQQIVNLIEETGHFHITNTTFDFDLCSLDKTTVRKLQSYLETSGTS
rRNA inh HTS = selective bacterial rRNA inhibition in E. coli. E. coli WT GFP vs humanized-ribosome RFP mutants, fluorescence, 24 h; active compounds read low; DMSO median 0, no signal -100. GFP signal change (wild-type ribosome), % (test concentration not listed). actives 1.6% (n = 350,000);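 active = significant combined selectivity score with lowered wild-type GFP, culture density cut under 30%, mutant RFP and density less affected; inactive = any of these conditions unmet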; also: one replicate is shown; some compounds called inactive have numbers as strong as hits
rRNA inh HTS OD600 = also measured in rRNA inh HTS; calls as there; OD600 change, %; measured here: OD600 growth;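 optical density of the mix in the first replicate; 0 = DMSO median and -100 = no signal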
rRNA inh HTS RFP = second read-out of rRNA inh HTS, no call of its own (marks repeat the call); RFP signal change, %; measured here: RFP humanized mutant strains;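 first replicate; 0 = DMSO median and -100 = no signal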
An asterisk follows results filed as active; i = inactive; ? = inconclusive; . = no result given. The list is partial; count on the stated rates, not on these rows.

Every second line gives: Beta apoptosis, T cruzi repl, Calb FLC, rRNA inh HTS OD600, AF4-AF9 inh, FGF22 binding, rRNA inh HTS RFP, rRNA inh HTS, ALR H2O2 inh, RanGTP-Imp inh
(1) CC(=O)Nc1sc2c(c1C#N)CCC(C)C2 (stereo not given)
  4, -1, 1, -40, 0.4, i, -4.6, -30, -1, -3.0
(2) O=C1CCCc2ccccc2N1Cc1cccc(Cl)c1
  -2, -9, -6, ., ., ., ., ., ., 5.8
(3) Nn1c(SCC(=O)Nc2ccc3c(c2)OCO3)nnc1-c1ccncc1
  0, -17, 3, ., ., ., ., ., -10, 1.9
(4) CN(CC(=O)Nc1cccc2c1CCCC2)S(=O)(=O)c1ccccc1
  0, -13, 9, ., ., ., ., ., -2, 0.8
(5) O=C(NC1CCCCC1)N1CCCC(c2nc(-c3ccc(S(=O)(=O)N4CCCC4)cc3)no2)C1 (stereo not given)
  10, -11, 29, ., ., ., ., ., ., -2.4
(6) O=S(=O)(Nc1ccc2c(c1)CCC2)c1cccs1
  -1, -5, -23, ., ., ., ., ., 4, 0.3
(7) C[C@@]12C(=O)N(CC3CCCO3)CC(=O)N1[C@H]1c3ccccc3OC[C@@H]1[C@@H]2c1ccccc1 (stereo not given in full)
  2, ., ., -4, 0.7, i, -5.5, -8, -8, .
(8) CCOC(=O)c1cnn(CC2CCCCC2)c1N
  -2, -11, 1, ., ., ., ., ., -6, -2.0
(9) S=C(NCCN1CCOCC1)Nc1ccc(Cl)c(Cl)c1
  -2, -6, 6, 0, 1.4, i, 0.4, -1, 22, -1.4
(10) COn1c(-c2ccccc2)c(C=O)c2ccccc21
  -4, -6, 6, -33, 1.3, i, -4.7, -26, 2, 3.1
(11) COc1ccc(NC(=O)N(CCCN2CCOCC2)Cc2cccnc2)c(OC)c1
  -4, -5, -14, -1, -0.6, i, -0.7, -3, -9, ?
(12) O=C(CSc1ccc(-c2ccccn2)nn1)NC1CCCCC1
  -1, 0, -5, -22, 1.7, i, -5.5, -18, -16, 1.6
(13) CC(C)OCCCn1c(=S)[nH]c2cc3c(cc2c1=O)OCO3
  3, -20, 8, ., ., ., ., ., -1, -4.0
(14) O=C(CC12CC3CC(CC(C3)C1)C2)N/N=C/c1ccncc1
  -11, -17, -13, ., ., ., ., ., ., -2.5
(15) Cc1ccc(NC(=O)c2c(C)noc2C)cc1
  ., -6, -21, ., ., ., ., ., -15, 3.4
(16) Cc1ccc(S(=O)(=O)CNC(=O)c2ccccc2)cc1
  0, -5, 2, ., ., ., ., ., 8, 1.5
(17) Cc1ccc(CNC(=O)c2ccc([N+](=O)[O-])o2)cc1
  -27, 47, -6, ., ., ., ., ., -23, 2.2
(18) CCOc1ccccc1NC(=O)c1cc(S(=O)(=O)NCc2ccco2)ccc1F
  7, 0, -4, -9, 0.3, i, 2.8, -4, -4, 2.5
(19) COCCn1c(Cc2ccccc2)nnc1SCC(=O)Nc1oc(C)c2c(C)n[nH]c(=O)c12
  -7, 8, 8, 17, -11, i, 0.6, 13, -10, -1.9
(20) CC(C)(C)OC(=O)C[C@H]1C/C=C\C[C@@H](CC(=O)NCCO)C(=O)N2CCC[C@H]2COC1=O
  -5, ., ., 17, -0.5, i, -0.1, 17, -7, .
(21) COC(=O)c1sccc1NC(=O)c1cccc(F)c1
  ., 18, -6, 9, -7.8, i, -1.8, -1, -10, -1.4
(22) CCCCn1c(SCC(=O)c2ccc3c(c2)OCCO3)nnc1-c1ccco1
  1, 6, -6, ., ., ., ., ., -4, 3.2
(23) COC(=O)c1ccc(N2CCN(CC(=O)c3ccc(-c4ccccc4)cc3)CC2)c([N+](=O)[O-])c1
  -1, 13, 2, ., ., ., ., ., 4, 4.9
(24) CCCCCCC12CCC(C(=O)O)(CC1)CC2
  -9, -9, 0, ., ., ., ., ., -7, 1.4
(25) CC(=O)Nc1ccc2nc(-c3ccc(Br)o3)[nH]c2c1
  -6, -2, -4, ., ., ., ., ., -13, 1.6
(26) COc1ccc(NC(=O)CC2C(=O)N(Cc3ccccc3)C(=S)N2CCN2CCOCC2)cc1 (stereo not given)
  -8, 7, 5, 0, 3.4, i, 5.3, -4, -103, 0.0
(27) O=c1c(C=NCCN2CCNCC2)c(-c2ccccc2)[nH]n1-c1ccc([N+](=O)[O-])cc1
  2, -9, 18, ., ., ., ., ., 27, 6.1
(28) COc1ccc(C2=NN(CC(=O)Nc3ccccc3C)C(=O)CC2)cc1
  4, 11, 4, -2, -1.7, i, -3.3, 5, -5, -0.7
(29) CC1CN(c2ccc(C(=O)c3ccccc3C(=O)O)cc2[N+](=O)[O-])CC(C)O1 (stereo not given)
  8, -8, -8, 10, -1.1, i, -1.8, 0, -2, -4.1
(30) CC(C)(C)OC(=O)NCCCCCNC(=O)c1ncn(Cc2ccccc2)c1C(=O)NCCCCCNC(=O)OC(C)(C)C
  2, ., ., 7, -4.0, i, -12, -15, -11, .
(31) CC(C)CNC(=S)N1CCN(C(c2ccccc2)c2ccccc2)CC1
  2, 14, 37, 12, 2.1, i, 3.6, 9, -14, 4.3
(32) CCCNC(=O)CNC(=S)N(Cc1cc(OC)c(OC)c(OC)c1)C1CCCC1
  -1, -1, 10, 4, 0.5, i, -0.1, -1, -8, 4.9
(33) Cc1c(C(=O)N2CCN(S(C)(=O)=O)CC2)oc2ccccc12
  -3, -20, 13, ., ., ., ., ., -12, 4.4
(34) CN(C)C(=O)c1ccc(NC(=O)CSc2nnc(-c3cccs3)n2N)cc1
  -8, ., ., 5, -6.9, i, -0.9, 1, 23, .
(35) O=C(Nc1cccc(-c2ccc(F)cc2)c1)C1CCCN(C(=O)c2cscn2)C1 (stereo not given)
  -4, 7, 1, 0, 0.4, i, -5.4, 3, -20, 3.7
(36) CC1(C)CC(=O)C=C(c2ccc(OC(F)(F)F)cc2)C1
  3, ., ., 0, -4.8, i, 1.9, 9, 1, .
(37) CC(C)c1ccc(N2C(=O)C3C4C=CC(CC4)C3C2=O)cc1 (stereo not given)
  -3, 13, -8, 11, 1.9, i, 1.8, 4, -2, -2.5
(38) C#CCSc1nc(C)cc(C(=O)OCC)c1C#N
  -9, -20, -3, 2, ., i, -2.9, -9, -12, 1.5
(39) Cn1cccc1/C=N/NC(=O)Cn1cnc2ccccc21
  1, 1, -6, ., ., ., ., ., ., -0.1
(40) Cc1ccccc1C(=O)Nc1cccc(-c2nnc(SCC(=O)O)n2C)c1
  -3, -22, -1, ., ., ., ., ., 3, 1.6
(41) COC(=O)c1ccc(CSc2nnnn2-c2ccccc2)o1
  5, -10, -3, ., ., ., ., ., 2, 5.9
(42) CCOC(=O)C(Cc1ccc(O)cc1)NC(=O)CNC(=O)C(CC(C)C)NC(=O)OC(C)(C)C (stereo not given)
  1, -31, 8, 11, -64, i, -0.4, 22, 15, 2.3
(43) CCOC(=O)c1cn(C2CC2)c2c(F)c(F)c(F)cc2c1=O
  -2, 25, -6, 10, -1.2, i, 2.2, 9, ., -0.9
(44) Cc1cc(N2CCN(c3ccc([N+](=O)[O-])c4cccnc34)CC2)c2ccccc2n1
  9, 29, -58, ., ., ., ., ., -5, -8.9
(45) O=C(/C=C/c1ccccc1Cl)NNC(=O)c1ccncc1
  2, ., ., 4, 0.8, i, 0.7, -1, 21, .
(46) Cc1ccc(Cl)cc1N1CCN(S(=O)(=O)c2ccc3c(c2)OCCO3)CC1
  -1, 15, -8, ., ., ., ., ., 0, 1.8
(47) Cc1cc(/C(N)=N/OC(=O)c2cccc(Cl)c2)no1
  0, -2, 0, 0, -1.8, i, 0.8, 21, 2, -0.5
(48) O=c1[nH]c2ccccc2cc1CN(CC1CCCO1)S(=O)(=O)c1ccc(Cl)cc1 (stereo not given)
  4, 15, -2, -21, -2.7, i, -0.2, -8, 3, 4.1
(49) COc1ccc2nc(Nc3sc4c(c3C(N)=O)CCCC4)sc2c1
  8, ., ., 5, 4.0, i, 26, -23, 9, .
(50) CCC(Oc1ccccc1)C(=O)Nc1ccccc1N1CCCC1 (stereo not given)
  -2, 8, 7, -33, 9.0, i, -6.6, -5, 32, 3.1
(51) CCCNS(=O)(=O)c1cccn1-c1ncc(C(F)(F)F)cc1Cl
  -5, 15, 0, ., ., ., ., ., -4, -0.2
(52) CSc1cccc(-n2ccc(=O)c(C)c2C)c1
  3, -11, -1, 10, -1.0, i, -1.7, 9, ., 3.1
(53) N#C/C(=C\c1ccc(OCc2ccc(C(=O)O)cc2)cc1)C(=O)N1CCOCC1
  4, -9, -2, -5, 0.1, i, 6.8, 9, 7, 1.9
(54) Cn1c(CSc2nc3ccccc3n2C)nc2ccccc21
  6, 3, 26, ., ., ., ., ., 0, -2.8
(55) Cc1cccc(N2CCN(C(=S)Nc3ccc4nc(N5CCOCC5)cc(C)c4c3)CC2C)c1 (stereo not given)
  -1, 52, -9, ., ., ., ., ., -38, 5.4
(56) c1ccc(-c2cnnc(-c3ccccn3)n2)cc1
  6, -14, -9, ., ., ., ., ., 1, -0.7
(57) CC(C)(C)c1ccc(C(=O)Nc2ccc([N+](=O)[O-])cn2)cc1
  6, 16, -35, 1, -5.4, i, -3.0, 0, -16, -2.7
(58) CCOc1cc(-c2nc3ccccc3s2)ccc1O
  2, 5, 11, -26*, 0.2, ., 2.9*, -35*, 65, 2.9
(59) O=C(NNC(=O)c1cc(Cl)ccc1[N+](=O)[O-])c1csc(N2CCOCC2)n1
  1, -6, 2, 4, 0.4, i, 4.1, 6, -2, .
(60) CCC(=O)N(Cc1cc(=O)[nH]c2ccccc12)c1ccccc1OC
  -7, -8, 2, 9, -1.8, i, -2.2, 2, ., -4.3

The list goes on.
Every second line gives: Beta apoptosis, T cruzi repl, Calb FLC, rRNA inh HTS OD600, AF4-AF9 inh, FGF22 binding, rRNA inh HTS RFP, rRNA inh HTS, ALR H2O2 inh, RanGTP-Imp inh
(61) COc1ccc(OC)c(C(=O)Cn2cnc3ccccc3c2=O)c1
  3, -6, -4, 8, -3.7, i, -1.6, 8, -4, 3.6
(62) COc1cccc(NC(=O)C2CCCCC2)c1
  2, -59, -8, ., ., ., ., ., -2, 1.4
(63) N#C/C(=C/c1cccc([N+](=O)[O-])c1)C(=O)Nc1ccccc1O
  0, -10, 11, 8, 3.9, i, -2.0, 6, 96*, ?
(64) COc1ccc2ccccc2c1CNC(C)CCc1ccccc1 (stereo not given)
  ., 56*, ?, -28, 2.9, i, 1.1, -23, -3, 1.7
(65) CCOc1cc2c(C#N)c(N3CCCC3)nc(N)c2c(N)n1
  0, -3, 10, 1, -5.8, i, 1.9, 5, 48, 2.8
(66) O=C(C1=C(O)C(=O)N(CCN2CCOCC2)C1c1ccc(Cl)cc1)c1cc2ccccc2o1 (stereo not given)
  4, -8, -8, 1, 5.2, i, 1.0, 9, 5, 1.8

Source: PubChem BioAssay (Broad Institute)
